Source: PubChem (several laboratories)
Calb FLC: C. albicans growth modulation with fluconazole; growth inhibition, % (test concentration not listed); 300,000 tested, 0.57% active; C. albicans CaCi-2 (fluconazole-resistant clinical isolate) + fluconazole, Alamar Blue growth, 48 h;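 active means most replicates above 75%; inconclusive means exactly half above 75%; inactive means most below 75%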;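 further: all wells also contain fluconazole at 8 µg/ml as a sub-toxic cotreatment; 0% = median of DMSO wells and 100% = median of geldanamycin control wells; wells of about 8 µL received 7.5 nL stock; the first replicate is given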
LANA-H2B inh: blocks KSHV LANA binding to histone H2A/H2B; cell-free LANA-H2A/H2B peptide, fluorescence polarization; inhibition, % (test concentration not listed); 320,000 tested, 0.6% active; AID 2629; in the data active means inhibition mostly above about 10%, no sharp cut-off; inactive means mostly below about 6.7%;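 further: stock transfer was 7.5 nL into about 10 µL; 0% = median of vehicle wells and 100% = median of positive control wells; one replicate is shown; the record names a cut of 25% in any replicate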
ALR inh: inhibitors of human sulfhydryl oxidase ALR | P55789 | purified ALR, DTT oxidation, H2O2 HRP-luminol luminescence | inhibition, % (test concentration not listed) | 290,000 tested, 3.8% active;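 active means mean and each replicate at 75% or more; inconclusive means only one of the two met; inactive means neither met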;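 further: stock transfer was 7.5 nL into about 7.5 µL; 0% = neutral wells and 100% = wells with inactivated enzyme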
Target sequence (P55789 whole entry, looked up): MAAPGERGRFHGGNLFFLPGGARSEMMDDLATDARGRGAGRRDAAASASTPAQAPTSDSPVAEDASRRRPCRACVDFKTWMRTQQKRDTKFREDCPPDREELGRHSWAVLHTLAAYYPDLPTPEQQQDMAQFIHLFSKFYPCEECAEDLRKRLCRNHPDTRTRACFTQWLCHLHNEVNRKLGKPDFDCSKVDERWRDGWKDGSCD
B2AR ag: human beta-2 adrenergic receptor agonism by FAP | AID 504454 | response, % (no concentration beside the values) | 340,000 tested, 0.43% active | Am2.2-beta2AR cells, FAP receptor internalization, flow cytometry; reference of the scale not given here;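 active means response above a set limit, near 3 SD of response in nonfluorescent compounds, cut at about 42% in these data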;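 further: stock transfer was 100 nL into about 11 µL; a reference agonist was the positive control; negative values mostly stem from fluorescent compounds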
Target sequence (P07550 whole entry, looked up): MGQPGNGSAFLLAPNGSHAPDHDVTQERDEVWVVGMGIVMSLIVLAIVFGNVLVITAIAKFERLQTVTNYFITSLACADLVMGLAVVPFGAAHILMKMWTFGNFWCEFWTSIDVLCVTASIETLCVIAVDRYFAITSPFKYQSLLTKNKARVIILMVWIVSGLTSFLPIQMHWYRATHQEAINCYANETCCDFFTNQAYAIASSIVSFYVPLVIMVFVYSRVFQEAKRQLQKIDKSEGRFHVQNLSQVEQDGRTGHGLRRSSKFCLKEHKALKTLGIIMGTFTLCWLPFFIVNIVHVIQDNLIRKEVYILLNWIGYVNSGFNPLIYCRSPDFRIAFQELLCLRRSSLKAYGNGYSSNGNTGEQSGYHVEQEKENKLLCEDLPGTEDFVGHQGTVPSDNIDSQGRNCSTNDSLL
RanGTP-Impb inh: disruptors of Ran-importin-beta complex formation – biochemical, FRET, CFP-Ran, YFP-importin-beta, homogeneous, primary screen | cell-free CFP-Ran/YFP-importin-beta FRET ratio | 300,000 tested, 1.1% active | inhibition, % (no concentration beside the values);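 active means most replicates above 15%; inconclusive means exactly half above 15%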;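 further: 0% = DMSO wells and 100% = Ran loaded with GDP instead of GTP; wells of about 40 µL received 100 nL stock; the first replicate is given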
Vif TR-FRET: inhibitors of Vif binding to APOBEC3G peptide, primary screen, biochemical, TR-FRET, GST-Vif 1-94, biotin-A3G peptide, dose response retest (AID 1117319); 260,000 tested, 0.57% active; TR-FRET GST-Vif / biotin-A3G peptide binding; higher % means a stronger effect; test concentration not given here; strong numbers were not always called active; one-dose inhibition, %; IC50 in µM for titrated hits;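 active means above the screen mean plus three standard deviations and confirmed in dose response; inconclusive means results disagree or hit not tested in dose response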;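 further: Vif residues 1-94 fused to GST binding biotinylated APOBEC3G peptide 110-148; 0% = full assay without inhibitor and 100% = GST in place of GST-Vif; retest series ran down from 100 µM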
HNF4A DNA FP: change in binding of human HNF4 alpha to DNA; HNF4a-FITC DNA binding, fluorescence polarization, 1 h; 360,000 tested, 0.3% active; activity change, % at 10 µM; in the data active means activity change above about 30%, passing the limit was not always enough;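 further: controls were the assay level and a saturating level of protein; the project sought stronger binding though the title names inhibitors; some compounds called inactive have numbers as strong as hits; positive values seem to mean higher polarization but the record does not say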
Target sequence (P41235 whole entry, looked up): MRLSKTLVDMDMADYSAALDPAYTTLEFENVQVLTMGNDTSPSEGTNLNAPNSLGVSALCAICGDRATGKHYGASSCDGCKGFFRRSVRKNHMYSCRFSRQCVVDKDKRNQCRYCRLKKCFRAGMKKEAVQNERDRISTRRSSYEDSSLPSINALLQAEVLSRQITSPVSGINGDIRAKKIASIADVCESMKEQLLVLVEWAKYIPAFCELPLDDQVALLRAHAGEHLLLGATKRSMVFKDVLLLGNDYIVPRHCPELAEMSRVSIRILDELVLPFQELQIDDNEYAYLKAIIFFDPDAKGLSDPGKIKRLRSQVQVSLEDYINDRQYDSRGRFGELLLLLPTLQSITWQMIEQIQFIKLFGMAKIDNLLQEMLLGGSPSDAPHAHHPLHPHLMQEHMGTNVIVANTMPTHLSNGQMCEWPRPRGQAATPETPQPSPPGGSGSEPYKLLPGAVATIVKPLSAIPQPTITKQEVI
Active calls of the source: *; ? = inconclusive; . = not tested or not shown; & = joins results of further samples.

Start of the data: the first 2 entries, to show the layout:
SMILES | Calb FLC | LANA-H2B inh | ALR inh | B2AR ag | RanGTP-Impb inh | Vif TR-FRET | HNF4A DNA FP
COCCCNC(=O)/C=C1\Sc2ccccc2N(Cc2ccccc2F)C1=O | 5.4 | -2.0 | -11.0 | 7.5 | 4.0 | -6.5% | 3.3
CCN(CC)S(=O)(=O)c1cccc(C(=O)NC(C(=O)Nc2nnc(C3CC3)s2)C(C)C)c1 (stereo not given) | -2.6 | -0.7 | . | 3.9 | 0.8 | 13.2% | 1.7

Main list, previewed entries included:
SMILES | Calb FLC | LANA-H2B inh | ALR inh | B2AR ag | RanGTP-Impb inh | Vif TR-FRET | HNF4A DNA FP
COCCCNC(=O)/C=C1\Sc2ccccc2N(Cc2ccccc2F)C1=O | 5.4 | -2.0 | -11.0 | 7.5 | 4.0 | -6.5% | 3.3
CCN(CC)S(=O)(=O)c1cccc(C(=O)NC(C(=O)Nc2nnc(C3CC3)s2)C(C)C)c1 (stereo not given) | -2.6 | -0.7 | . | 3.9 | 0.8 | 13.2% | 1.7
Cc1sc2ncnc(N3CCC(C(=O)Nc4cc(S(C)(=O)=O)ccc4Cl)CC3)c2c1C | 11.1 | 5.0 | 5.5 | 11.0 | 2.6 | 5.5% | 3.5
COCc1ccc(-c2c(-c3cccc(OC)c3)sc3ccc(OC)cc23)cc1 | . | 1.0 | -4.0 | 2.2 | . | . | 2.3
CC(C)/C=C(/C(=O)c1ccc(Cl)cc1Cl)n1cncn1 | -8.3 | 4.6 | 97.2* | 11.8 | ? | -5.2% | 0.6
Cc1ccc(OCC(=O)N/N=C/c2cccn2C)cc1C | -0.7 | -3.6 | -4.3 | 4.2 | -2.5 | -1.1% | -1.7
O=C(CSc1ccccc1)NCc1ccco1 | 2.4 | 1.6 | 49.3 | 3.9 | 0.5 | -6.3% | -0.8
CCOC(=O)C1=NN(C(=O)c2ccco2)C2(CC2)C1 | 2.4 | -6.2 | -0.5 | 1.4 | 0.8 | . | 0.2
O=C(CN1CCCCC1)Nc1cccc(Oc2ccccc2)c1 | -21.7 | -0.7 | -10.4 | -15.0 | 0.9 | 22.1% | 3.4
N#Cc1cc2c(nc1SCc1ccccc1)CCCC2=O | 23.6 | 15.5 | -6.8 | 0.1 | -1.9 | -23.4% | 4.7
CN(C)c1ccc(NC(=O)CN2CCN(c3ccc(F)cc3)CC2)cc1 | 0.8 | 0.7 | 70.4 | -3.5 | 6.5 | . | 2.8
CC(O)c1cc2c(cc1NC(=O)c1cnn3c1NC(c1ccco1)CC3C(F)(F)F)OCO2 (stereo not given) | -3.1 | 0.3 | -4.6 | -7.0 | -0.9 | 26.2%&3.5% | -3.4
O=C1CSC(c2ccc(F)c(F)c2)N1c1ccccc1F (stereo not given) | 9.4 | 0.4 | 98.4* | 2.5 | 6.8 | 4.7% | 2.5
CN(Cc1cc2ccccc2[nH]c1=O)C(=O)c1cccs1 | -6.3 | -0.7 | -23.4 | -12.0 | -0.4 | 19.1% | -0.3
Cc1cc(C)cc(NC(=O)Cn2nnc(C(=O)NCc3ccc4c(c3)OCO4)c2N)c1 | -17.7 | 7.3 | -0.5 | 1.9 | 1.5 | -9.6% | 8.2
CCOc1ccc(S(=O)(=O)Nc2ccc(S(=O)(=O)N3CCCCC3)cc2)cc1 | 5.8 | -1.3 | -10.0 | -4.3 | 6.4 | 75.8% | -3.2
CCOC(=O)C(NC(C)=O)(Nc1ccc(S(=O)(=O)Nc2onc(C)c2C)cc1)C(F)(F)F (stereo not given) | -19.9 | -1.4 | -2.0 | -12.8 | -2.0 | 11.6% | 0.1
CCNCc1ccc(OCc2ccccc2F)c(OC)c1 | -31.4 | -1.3 | . | -4.4 | . | . | 1.7
O=C(COC(=O)c1cc2ccccc2cc1O)c1ccccc1 | 0.3 | -0.8 | 0.4 | 0.7 | -0.9 | -1.5% | 3.1
CCCS(=O)(=O)N1CCN=C1SCc1cccnc1 | -11.7 | 5.9 | 98.5* | 4.5 | -1.4 | -5.7% | 0.3
COC(=O)c1ccc(NC(=O)Nc2ccc(C)cc2)cc1 | 21.7 | 4.6 | 0.2 | -2.1 | 3.0 | 5.7% | -1.0
C/C(=N\NC(=O)C(N)=O)c1ccc(OC(F)F)cc1 | -1.8 | -5.2 | -14.7 | 4.3 | 3.1 | -4.7% | -2.4
COC(C(=O)N/N=C(\C)CC(=O)Nc1ccc(Cl)cc1C)c1ccccc1 (stereo not given) | -2.6 | 2.4 | 3.0 | 4.6 | -0.9 | . | 0.5
CN(Cc1ccccc1)C(=O)c1ccc(Cl)c([N+](=O)[O-])c1 | 6.5 | -2.1 | 2.1 | -9.3 | 1.5 | -1.4% | -1.5
O=C(c1ccncc1)N1CCN(c2ccc(F)cc2)CC1 | -4.2 | -1.2 | 10.3 | -3.7 | 6.3 | 2.2% | -2.5
C=Cn1cc[n+](CC(=O)c2ccc(OC)c(OC)c2)c1 | 11.3 | -5.9 | -17.8 | -5.3 | 1.4 | -10.0% | 1.4
CC1CN(CCCOc2ccc([N+](=O)[O-])cc2)CC(C)O1 (stereo not given) | 10.5 | 3.9 | -2.6 | 7.7 | -0.5 | -7.9% | 0.8
Cc1nc(SCC(=O)NCCc2ccc(Cl)cc2)nc(C)c1C | 0.0 | 0.2 | 3.0 | 8.9 | 10.1 | 2.8% | 1.8
CCOc1ccccc1NC(=O)C(C)CC (stereo not given) | -4.1 | 3.1 | 9.1 | 2.5 | -1.2 | 1.4% | 0.2
O=C(c1cc(Cl)nc2ccccc12)N1CCc2ccccc2C1 | 1.0 | -2.3 | 34.8 | 11.3 | 7.8 | . | -1.2

Quoted from the listing:
Reading of `C/C(=N\NC(=O)C(N)=O)c1ccc(OC(F)F)cc1` in Calb FLC: -1.8
Reading of `CCNCc1ccc(OCc2ccccc2F)c(OC)c1` in LANA-H2B inh: -1.3
Reading of `Cc1nc(SCC(=O)NCCc2ccc(Cl)cc2)nc(C)c1C` in B2AR ag: 8.9
Reading of `CN(Cc1ccccc1)C(=O)c1ccc(Cl)c([N+](=O)[O-])c1` in ALR inh: 2.1
Reading of `O=C(c1ccncc1)N1CCN(c2ccc(F)cc2)CC1` in B2AR ag: -3.7
Reading of `COC(=O)c1ccc(NC(=O)Nc2ccc(C)cc2)cc1` in RanGTP-Impb inh: 3.0

Next section.
SMILES | Calb FLC | LANA-H2B inh | ALR inh | B2AR ag | RanGTP-Impb inh | Vif TR-FRET | HNF4A DNA FP
CC(C)N(C)C(=O)CCc1nnc(CCc2c[nH]c3ccccc23)o1 | -10.9 | -1.3 | -3.6 | -2.5 | 0.2 | 6.7% | 3.3
Cc1ccnc(SCC(=O)c2cc3ccccc3o2)n1 | 10.3 | . | . | -0.2 | 1.6 | -7.5% | -0.9
CCn1c(N)c(C(=O)NCc2cccnc2)sc1=S | -5.9 | 7.1 | 98.5* | -4.0 | 6.3 | 16.7% | -0.9
COc1ccc(NC(=O)N(C)C[C@H]2Oc3ccc(NC(=O)C4CCCCC4)cc3C(=O)N([C@H](C)CO)C[C@@H]2C)cc1 | . | 3.7 | -6.5 | -0.5 | . | . | 5.9
O=S(=O)(Nc1ccc(F)cc1)N1CCOCC1 | 2.3 | 1.2 | . | 1.9 | -0.9 | . | -1.4
O=C(NCCc1c[nH]c2ccccc12)C1CCC(Cn2c(=S)[nH]c3ccccc3c2=O)CC1 (stereo not given) | -9.9 | 2.3 | -9.3 | -2.9 | ? | -4.5% | 3.9
CSc1nnc(-c2ccc(S(=O)(=O)N3CCOCC3)cc2)n1C | 23.6 | -1.1 | -0.3 | 4.0 | 2.6 | . | 2.2
O=C(CCN1CCN(c2ccccc2)CC1)NNC(=S)Nc1ccccc1 | -6.5 | -0.1 | . | 3.0 | 3.2 | -6.9% | 1.7
COc1ccc(NC(=O)CSc2nc3c(c(=O)n2-c2ccc(F)cc2)SCC3)c(OC)c1 | 0.0 | -4.6 | 3.1 | 2.7 | -0.4 | 0.6%&-4.3% | -0.7
O=C(NC1CCCCC1)C1(c2ccccc2)CC1(Cl)Cl (stereo not given) | -24.7 | -1.7 | -6.3 | -2.5 | -2.9 | . | 3.4
CC(C)NC(=O)C(=O)NCCN1CCN(C(=O)c2ccc(C(C)(C)C)cc2)CC1 | 0.6 | -5.5 | -9.4 | -7.4 | -2.8 | . | 2.8
CC1(CCc2ccccc2)NC(=O)N(CC(=O)Nc2ccc3c(c2)OCCO3)C1=O (stereo not given) | 110.0* | -3.5 | -5.1 | -3.0 | 6.9 | . | 1.7
CS(=O)(=O)N1CCc2cc(C(=O)N3CCN(c4cccc(Cl)c4)CC3)ccc21 | 21.9 | 1.8 | -14.8 | -2.3 | -2.5 | 2.8% | 1.9
COC(=O)c1[nH]c2c(c1C(=O)OC)CCc1ccccc1-2 | 24.1 | 1.6 | . | 6.8 | 4.7 | 7.0% | -2.0
COc1ccc(/C(C)=N/NC(=O)CNC(=O)Cc2ccccc2)c(OC)c1 | -1.5 | 3.7 | . | -6.0 | 0.0 | -11.5% | 2.4
COc1ccc(-n2c(C)nc3c(cnn3-c3ccc(C)c(C)c3)c2=O)cc1 | 5.9 | -3.3 | . | 0.8 | -0.9 | 2.3% | 2.4
COc1ccc(/C=C(/NC(C)=O)C(=O)O)cc1 | -3.5 | 3.4 | -6.9 | 3.2 | 0.6 | >100µM* | 0.0
O=C1c2ccccc2NC(c2ccccc2)N1CCCN1CCOCC1 (stereo not given) | 4.4 | -8.1 | -13.4 | 10.0 | 0.0 | 25.9% | 0.2
COc1cccc(-c2ncc3ccccc3c2COC(=O)N(C)C)c1 | . | -1.9 | 29.9 | -6.5 | . | . | -0.6
O=C(NNc1c2ccccc2nc2ccccc12)c1ccccc1O | -14.4 | -0.2 | 98.8* | 53.0* | . | -1.6% | 4.4
NNc1nc(-c2ccccc2)cs1 | ? | 2.1 | 99.1* | 9.1 | -1.1 | ? | 3.9
c1ccc(-c2nccnc2-c2ccccc2)cc1 | 10.8 | 2.7 | . | -0.9 | -0.7 | -8.1% | -2.0
CN(C)CCNC(=O)c1c(O)c2c([nH]c1=O)CCCC2 | -5.2 | -5.4 | 42.7 | -28.8 | -5.1 | ? | 0.3
O=C(NCCN1CCOCC1)c1cc(-c2ccco2)on1 | 11.3 | -6.1 | -6.0 | -7.9 | ? | 29.6% | -0.8
CS(=O)(=O)c1ccc(C(=O)NNC(=O)c2cc(-c3ccccc3)n[nH]2)cc1 | . | 0.1 | . | -1.8 | . | . | 2.0
O=C(Nc1ccc(C(=O)N2CCCC2)cc1)c1ccc(F)cc1Cl | 9.2 | 4.4 | -6.5 | 1.9 | 2.3 | . | 1.8
COc1ccc(S(=O)(=O)Oc2c(OC)cc(C(=S)N3CCOCC3)cc2OC)cc1 | -2.0 | -0.6 | 1.6 | -6.7 | -0.6 | . | 5.6
NC(=O)N/N=C/c1c(F)cccc1F | -3.4 | 6.0 | -8.0 | 7.5 | 1.2 | ? | -1.3
COCCCNc1nc2nonc2nc1N1C[C@H]2CC[C@H]1C2 | 19.6 | 4.3 | -8.7 | -23.2 | 0.0 | -3.5% | -1.9
CC(C(=O)Nc1ccc(S(=O)(=O)N2CCOCC2)cc1)N1C(=O)C2CC=CCC2C1=O (stereo not given) | -5.8 | 7.4 | -0.3 | -0.3 | -5.5 | . | 5.2
COC(=O)c1c(NS(=O)(=O)Cc2ccccc2)sc2c1CCCC2 | 2.5 | 0.2 | 91.5* | 3.3 | -19.1 | 3.7% | 0.6
COc1ccc(CC(=O)Nc2cc(S(=O)(=O)N3CCCC3)ccc2Cl)c(OC)c1 | . | 2.9 | . | 5.4 | . | 4.9% | -0.3
O=C(CSc1nc2c([nH]c3ccccc32)c(=O)n1-c1ccccc1)NCC1CCCO1 (stereo not given) | 5.9 | -3.4 | 2.5 | -6.0 | -3.3 | . | 3.0
CCOc1ccc(Oc2ccc(NC(=O)[C@@H](NC(N)=O)[C@@H](C)CC)cc2)cc1 | 21.5 | 1.9 | -3.9 | -0.1 | -4.4 | 12.2% | 1.1
